UUG fidelity – alters start codon recognition fidelity in yeast; 0.13% of 350,000 active; S. cerevisiae UUG-firefly luciferase reporter, luminescence/redox ratio; activity score, % at 18.7 µM;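 active means replicate mean at a twofold rise or more, about +100% in these data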;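 further: firefly luciferase made from a UUG start codon reports start codon fidelity; reporter light over untreated wells divided by growth signal over untreated wells; some hits fall short of that in this replicate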
PABP polyA inh – blocks human PABP binding to poly(A) RNA. P11940. fluorescence polarization. inhibition, % at 35 µM. 1% of 290,000 active;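 active means 50% or more with normal probe brightness, or confirmed in later tests; inconclusive means above 50% with abnormal brightness, or retests that disagree; inactive means below 50% or failed in later tests; about a fifth of its hits are not listed in these tables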;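 further: calls also rest on retests at 20 µM and on dose response follow-up; controls were probe without protein and protein plus probe with vehicle; some compounds called inactive have numbers as strong as hits; many hits fall short of the cut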
Target sequence (P11940 whole entry, looked up): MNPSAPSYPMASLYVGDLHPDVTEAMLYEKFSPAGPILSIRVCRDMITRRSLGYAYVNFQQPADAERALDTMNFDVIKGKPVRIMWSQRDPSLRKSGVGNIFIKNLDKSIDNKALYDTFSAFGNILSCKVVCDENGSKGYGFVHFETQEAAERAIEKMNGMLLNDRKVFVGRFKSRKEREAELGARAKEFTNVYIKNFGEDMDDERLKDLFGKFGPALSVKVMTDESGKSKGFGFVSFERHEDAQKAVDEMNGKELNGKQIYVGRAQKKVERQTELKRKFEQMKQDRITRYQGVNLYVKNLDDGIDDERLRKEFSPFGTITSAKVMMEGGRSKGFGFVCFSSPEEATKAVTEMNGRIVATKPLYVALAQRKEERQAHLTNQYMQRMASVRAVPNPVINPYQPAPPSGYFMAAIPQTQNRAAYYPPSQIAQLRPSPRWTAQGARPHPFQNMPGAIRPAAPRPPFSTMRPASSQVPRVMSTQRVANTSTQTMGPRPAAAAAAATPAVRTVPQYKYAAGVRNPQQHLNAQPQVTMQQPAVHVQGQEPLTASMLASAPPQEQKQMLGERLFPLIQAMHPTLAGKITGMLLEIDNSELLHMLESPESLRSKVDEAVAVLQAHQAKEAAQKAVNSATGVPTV
CSC inhib – blocks cancer stem cells | cancer stem cell-like cells viability, luminescence | inhibition, % at 7.5 µM | 1.1% of 300,000 active;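 active means mean at 75% or more and at least half the replicates too; inconclusive means mean and replicates disagree; tested in HMLE shEcad cells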;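 further: 0% = median of negative and 100% = median of positive control wells; the first replicate is given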
eIF4H inh – inhibitors of RNA binding by human eIF4H; inhibition, % at 35 µM; Q15056; eIF4H fluorescence polarization binding assay; 0.94% of 290,000 active; AID 2012;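 active means 50% or more with normal probe brightness, or confirmed in later tests; inconclusive means above 50% with abnormal brightness, or retests that disagree; inactive means below 50% or failed in later tests; about a fifth of its hits are not listed in these tables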;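 further: calls also rest on retests at 20 µM and on dose response follow-up; 0% = protein and probe with vehicle and 100% = probe without protein; strong numbers were not always called active; many hits fall short of the cut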
Env fusion inh – blocks HIV Env-driven cell-cell fusion; 1.1% of 360,000 active; inhibition, % at 12.3 µM; HeLa-JRFL Env/CEM21 cell fusion, luciferase;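 active means mean replicate inhibition score of at least 50 and every replicate individually at or above 50; inconclusive means only one of the two criteria met; inactive means mean below 50 and not all replicates reaching 50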;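 further: 0% = plate neutral controls and 100% = maraviroc near 300 nM; one replicate is shown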
MT1-MMP act inh – inhibitors of human MT1-MMP activation; HT1080 RFP-PRO-GFP cells, GFP/RFP ratio fluorescence, overnight; percent of plate control window, DMSO zero; P50281; 0.061% of 360,000 active; GFP/RFP ratio change, % at 20 µM; AID 651647;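 active means GFP/RFP ratio change of at least 30% with cell ATP level not reduced by more than half and red fluorescence within 50% of control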; further: strong numbers were not always called active
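system = RFP-PRO-GFP reporter HT1080 cells | dosing = 20 µM single dose, 1% DMSO | timing = overnight cell settling, then overnight compound exposure, 37 °C, 5% CO2 | read-out basis = GFP/RFP fluorescence ratio | controls = DMSO and RFP-L50D-GFP cell wells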
Rce1 inhib – blocks yeast Ras-converting enzyme | calls only | Q03530 | 0.27% of 290,000 active | yeast membranes, quenched prenylated peptide cleavage fluorescence;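 active means fall in fluorescence gain of 50% or more versus controls, with final raw signal at or below 3038400; inconclusive means same 50% fall but final raw signal above 3038400; inactive means fall in fluorescence gain under 50%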;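 further: plate controls were neutral control wells for no effect and wells lacking membranes for full effect; tested at 10 µM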
MT1-MMP act inh RFP – second read-out of MT1-MMP act inh, no call of its own (marks repeat the call); RFP signal change, %; measured here: RFP expression control read;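 0 = vehicle wells; hits needed this value within 50% of zero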
Active calls of the source: *; i = inactive; ? = inconclusive; / = not tested or not shown.

Under each structure – UUG fidelity, PABP polyA inh, CSC inhib, eIF4H inh, Env fusion inh, MT1-MMP act inh, MT1-MMP act inh RFP, Rce1 inhib
O=C(Cn1cnc2ccccc21)NCc1ccccc1
→ -23, -14, -5, -12, 15, -3, -6, i
O=C(COC(=O)/C=C/c1cccs1)NC(=O)Cc1ccccc1
→ /, 20, -13, 8, 5, 2, 7, i
CC(=O)Nc1ccc(S(=O)(=O)c2ccc(N)cc2)cc1N
→ -10, 5, 2, -5, -25, -7, 3, i
Cc1cc(OC(=O)c2cc(F)c(F)cc2Cl)nc(C)n1
→ -8, 1, 13, -8, ?, 2, 1, i
O=CN1CCCN(C(=O)CC2C(=O)NCCN2Cc2cccc(Oc3ccccc3)c2)CC1 (stereo unspecified)
→ 2, -3, 9, 8, 3, -2, 2, i
COc1cc(NS(=O)(=O)c2ccc(Cl)cc2)c(C(=O)O)cc1OC
→ -3, -5, 14, 0, -3, 4, 5, i
COc1ccc(CCC(=O)Nc2ccc(OC)c(S(=O)(=O)N3CCCCC3)c2)cc1OC
→ -2, /, /, /, 0, -2, -10, /
COCC1CCCCN1C(=O)c1ccc2oc(CCCc3ccccc3)nc2c1 (stereo unspecified)
→ 8, -8, 2, 2, 14, 3, -8, i
Cc1ccc(S(=O)(=O)C2(C(=O)NC3CCCCC3C)CC2)cc1 (stereo unspecified)
→ -9, 2, -9, -19, 13, 2, 0, i
Cc1cc(SCc2cc(=O)[nH]c3ccccc23)nc2ccccc12
→ /, -17, 6, -7, /, -8, -8, i
CCOC(=O)c1ccc(NC(=O)COc2cc(=O)n(CC)c3ccccc23)cc1
→ -5, 4, 13, -3, -4, 3, 3, i
CC(C)CC(NC(=O)OC(C)(C)C)C(=O)NC(C(=O)N1CCCC1C(N)=O)C(C)C (stereo unspecified)
→ -15, 34, -15, 3, /, -1, -2, i
CCc1n[nH]c(=S)n1/N=C/c1c[nH]c2ccc(Br)cc12
→ /, -10, 16, 2, -9, -5, -10, i
O=C1C2CC=C(Cl)CC2C(=O)N1CN(Cc1ccco1)CN1C(=O)C2CC=C(Cl)CC2C1=O (stereo unspecified)
→ -5, 54*, -6, 66*, /, -1, 2, i
N=C1C(c2nc3ccccc3s2)=C(O)CN1NC(=O)c1c[nH]c2ccccc12
→ /, -52, 2, -39, 14, 6, 5, i
O=Cc1ccc(-n2cc(C=O)c3ccccc32)cc1
→ /, 4, /, -2, 16, -3, 4, i
CC(=O)Nc1cccc(Oc2nc(-c3ccccn3)nc3ccccc23)c1
→ -33, 3, 32, -2, 19, -1, -4, i
O=c1oc2ccccc2cc1-c1csc(Cc2nc(-c3ccc(Cl)cc3)cs2)n1
→ 15, 3, 9, 32, -23, -2, -18, i
CNC(=O)[C@@H]1C[C@H]1[C@@H](NC(=O)CNC(=O)OCc1ccccc1)c1ccccc1
→ /, /, -4, /, -27, /, /, i
CCn1c(CNC(=O)COc2ccc(C(C)C)cc2)nnc1SCC(=O)Nc1cc(F)ccc1C
→ -22, -2, -18, 4, /, -3, -13, i
Cc1[nH]c2ccccc2c1/C=N/Nc1nc(N2CCCCC2)nc(N2CCCCC2)n1
→ /, -3, 35, -9, 42, -9, 1, i
Nc1nc(SCCO)[nH]c(=O)c1NC(=O)c1ccco1
→ -7, /, -6, /, /, -2, 0, /
CCCN(CC(=O)Nc1c(C)cccc1CC)C(=O)SCC
→ -3, -10, 5, -10, /, 0, -2, i
CCOc1ccc(NC(=O)C(c2ccccn2)N(C(=O)CCl)c2ccc(F)cc2)cc1 (stereo unspecified)
→ /, -9, 2, 3, /, 4, 7, i
CCc1cc(C(=O)N=Nc2c(O)[nH]c3ccc([N+](=O)[O-])cc23)c2ccccc2n1
→ /, 9, 17, 10, 17, 11, -1, i
COc1ccc(O)c(/C=N/c2nc3ccccc3n2C)c1
→ -8, -13, -9, -12, 2, 2, 4, i
Cc1cc(Cn2ccnc2)c(C)cc1Cn1ccnc1
→ -20, -4, -12, -13, -20, -1, -3, i
O=C(C1CCCN(S(=O)(=O)c2cnc[nH]2)C1)N(CCc1ccccc1)Cc1ccccc1 (stereo unspecified)
→ -9, -3, -13, 6, -19, 1, 3, i
COc1ccc(-c2c(C#N)c(N)nc3c2CCCC3)cc1OC
→ -2, /, -6, /, -20, -2, -4, i
O=C(CCCC(=O)OCC(F)(F)C(F)F)Nc1nccs1
→ -25, 2, /, 14, /, 1, -3, i
CN1CCCC(C)(C(=O)Nc2ccc3scnc3c2)C1 (stereo unspecified)
→ -22, /, /, /, -146, 2, 6, /
CCOC(=O)C1=C(O)/C(=C\c2ccc(CNS(=O)(=O)c3ccc(Br)cc3)o2)N=C1C
→ -12, 27, 20, ?, -2, -11, 2, i
CSc1sc(-c2ccnc(SCC(=O)C(C)(C)C)n2)c2c1C(=O)CC(C)(C)C2
→ /, -4, 54, -9, 65*, -4, -5, i
CCOC(=O)C1=C(Cn2cnc3ccccc32)NC(=O)NC1c1ccc(Cl)cc1 (stereo unspecified)
→ -17, 2, /, -6, /, 3, -3, i
NC(=O)c1cc(N2C(=O)C=CC2=O)ccc1Cl
→ 11, 1, /, 10, /, -3, 0, i
C=CCNC(=S)NNC(=O)c1cc(-c2cccnc2)nc2ccccc12
→ -9, -6, -5, 7, 15, -3, -1, i
Cc1cc2c(cc1C)N(CC(=O)N1CCCC1)C(=O)CC(c1ccccc1)=N2
→ -5, -2, -8, 5, -19, -1, -1, i
O=C(CN1CCC(O)(c2ccc(F)cc2)CC1)NCc1ccc(F)cc1
→ -16, 9, -8, -6, /, 16, -5, i
Oc1ccc(Cl)cc1C1=NNC(c2cccs2)C1 (stereo unspecified)
→ -20, -2, 28, 2, -18, -17, -5, i
COc1ccc(CNC(=S)NCc2ccc(OC)cc2)cc1
→ /, -2, -9, -4, 14, 2, 4, i

Quoted from the listing.
Under MT1-MMP act inh RFP, `CCCN(CC(=O)Nc1c(C)cccc1CC)C(=O)SCC` is entered as -2
Under eIF4H inh, `Cc1cc2c(cc1C)N(CC(=O)N1CCCC1)C(=O)CC(c1ccccc1)=N2` is entered as 5

Other structures
Under each structure – UUG fidelity, PABP polyA inh, CSC inhib, eIF4H inh, Env fusion inh, MT1-MMP act inh, MT1-MMP act inh RFP, Rce1 inhib
CC(C)c1cc(C(F)(F)F)n2nc(C(=O)Nc3ccc(-n4cnnn4)cc3)cc2n1
→ -19, 10, -18, 10, 4, 2, 5, i
Cc1cc(C)n(CCc2nc3c4ccccc4n(CC#N)c(=O)n3n2)n1
→ -4, -6, /, -4, -42, -1, 0, i
O=c1[nH]cccc1-c1nc2ccccc2n1Cc1ccc(Cl)cc1
→ -22, -2, -13, -4, -2, -6, -4, i
COC1(OC)C=CC(=O)C=C1NC(=O)c1ccccc1OC(C)=O
→ -19, /, 65, /, -65, 6, -15, i
CC(C)C(=O)Nc1nnc(SCC(=O)Nc2ccc3c(c2)OCCO3)s1
→ 3, -10, 0, -11, 13, 4, 3, i
Cc1c(NC(=O)C2CCCNC2=O)c(=O)n(-c2ccccc2)n1C (stereo unspecified)
→ -23, -4, -4, -4, /, 7, 2, i
S=C(NCc1ccccc1)N1CCn2cccc2C1c1cccnc1 (stereo unspecified)
→ /, -3, /, 14, 7, -3, 0, i
COc1ccc(NC(=O)c2n[nH]c(=O)c3ccccc23)cc1S(=O)(=O)N1CCCCC1
→ /, -4, 2, 2, /, 3, -7, i
CC(C)c1ccc(NC2CCCN(C(=O)CCN3CCCC3=O)C2)cc1 (stereo unspecified)
→ -11, -4, -6, 10, 8, -2, 0, i
Cc1ccc(C(=O)O)cc1NC(=S)NC(=O)c1ccc(-c2ccc(Cl)cc2)o1
→ /, 5, -2, -5, -14, 7, 2, i
CC1CCc2sc(C(=O)N/N=C/c3ccc([N+](=O)[O-])cc3)cc2C1 (stereo unspecified)
→ -2, 0, -10, -4, /, 4, 5, i
Cc1cccc(C2C3=C(CCCC3=O)N=C3c4ccccc4C(=O)C32)c1 (stereo unspecified)
→ /, 3, 28, -10, 10, 11, 1, i
CC1=CN2C(=N)/C(=C/c3cn(CCCOc4ccccc4C)c4ccccc34)C(=O)N=C2S1
→ -22, -13, 3, 3, 1, 0, 8, i
CN1CCN(C(=O)c2cc([N+](=O)[O-])ccc2Cl)CC1
→ -7, 0, -5, 0, 3, 0, 1, i
C=CCNC(=O)c1ccccc1NC(=O)COc1ccccc1
→ /, -1, -13, -1, 0, -2, 0, i
CCCS(=O)(=O)NC(=O)C1(C)CCN(C(=O)c2cc(OC)c(OC)c(OC)c2)C1 (stereo unspecified)
→ -13, /, /, /, -42, 27, -3, /
COc1ccc(-c2cc(=O)oc3cc(OCC(C)=O)ccc23)cc1
→ -8, 22, -5, -8, 28, -1, -3, i
CN(C)CCN(C(=O)c1ccc(S(=O)(=O)N(C)C)cc1)c1nc2cc3c(cc2s1)OCCO3
→ -12, -19, -30, -2, 6, 3, 8, i
COC(=O)C1=C(N)N(c2ccccc2F)C2=C(C(=O)CC(C)(C)C2)C1c1ccc(OC)c(OC)c1 (stereo unspecified)
→ /, 12, 2, -9, -60, 4, 3, i
CCOc1cccc(NC(=O)C2CC(=O)NC(=Nc3ccccc3)S2)c1 (stereo unspecified)
→ -4, -6, -2, -3, /, 11, -11, i
O=C(c1ccncc1)N1N=C(c2ccc(Br)cc2)CC1c1ccccc1O (stereo unspecified)
→ -7, 6, 17, -20, 3, -9, -5, i
Cn1c(-c2ccccc2)c(CCO)c2ccccc21
→ 34, 30, -20, -4, -13, 6, -1, i
COc1cccc(/C=C/C(=O)OCC(=O)NCC2CCCCC2)c1OC
→ 27, /, 0, /, -2, 1, -2, /
C/C=C/c1ccccc1OCc1ccc(C(=O)OC)o1
→ 9, -16, /, 2, /, 0, 3, i
Cc1ccc(/C(N)=N/OC(=O)c2ccc3ccccc3c2)cc1
→ 11, 2, -7, -3, -99, -1, -3, i
COc1ccc(N2CCN(CC(=O)NC(=O)NCc3ccccc3)CC2)cc1
→ 1, /, /, /, -4, -3, -1, /
COC(=O)CCc1sc(Nc2ccccc2)nc1-c1ccc(OC)cc1
→ -30, 19, 46, 0, -7, -4, -4, i
c1coc(-c2nc3nc4ccccc4n3nc2-c2ccco2)c1
→ /, 64*, 9, 73*, /, 4, 8, i
CCn1nnc(-c2ccccc2NS(=O)(=O)c2ccc(S(=O)(=O)N(C)C3CCCCC3)cc2)n1
→ -13, -9, 7, 0, 37, -6, -5, i
Cc1ccccc1CS(=O)(=O)Cc1ccc(C(=O)NCCCN2CC(C)CC(C)C2)o1 (stereo unspecified)
→ 8, 3, -9, -8, 7, 2, 3, i
CCCCNc1c(-c2cccc(-c3cc(C(C)=O)cs3)c2)nc2ccc(C)cn12
→ -19, /, 125*, /, 1, -12, 3, i

High-throughput results: PubChem BioAssay, several laboratories
